Methyltransferases: Primary Screen for Target Class Profiling of Small Molecule Inhibitors of Methyltransferases; purified enzyme, MTase-Glo SAH luminescence; active compounds read low; calls only at 40 µM; 25,000 tested, 3.9% active; AID 1745853, 2022; active = -50% or lower on at least one of six enzymes; inconclusive = the cases between; inactive = as a rule above -30% on all six;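 further: enzymes were COMT GAMT GNMT HNMT NNMT and PNMT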
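Each enzyme was assayed with SAM and its substrate. SAH formation detected by MTase-Glo luminescence; single-point 40 uM screen[…].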
Calls only; i = inactive; ? = inconclusive; + = active, no number. On the % scale 0 is the no-effect control and ±100 the full control effect.

SMILES | Methyltransferases
O=C(Nc1cccc(Br)c1)N1Cc2ccccc2-n2cccc2C1c1ccccc1 (centres undefined) | i
CCc1ccc(NC(=O)N2Cc3ccccc3-n3cccc3C2c2ccc(N(C)C)cc2)cc1 (centres undefined) | i
CCOC(=O)CNC(=O)N1Cc2ccccc2-n2cccc2C1c1ccc(SC)cc1 (centres undefined) | i
CCOC(=O)c1cccc(NC(=O)N2Cc3ccccc3-n3cccc3C2C)c1 (centres undefined) | i
CCOc1ccccc1NC(=O)N1Cc2ccccc2-n2cccc2C1c1ccc(Cl)cc1 (centres undefined) | i
C=C(C)[C@@]12O[C@@H]1[C@@]1(C)C(=C[C@H]2O)CC[C@@H](O)[C@@H]1C | i
O=C(C1CCC1)N1[C@H]2CC[C@@H]1c1cnc(-c3ccccc3)nc1C2 | i
COc1ccc(N(C(=O)Oc2c(C)cccc2C)c2ccnc(Nc3ccc(N4CCN(C)CC4)cc3)n2)c(OC)c1 | i
CCc1ccc(C2c3cccn3-c3ccccc3CN2C(=O)Nc2cccc(C(F)(F)F)c2)cc1 (centres undefined) | i
CN(C)c1ccc(C2c3cccn3-c3ccccc3CN2C(=O)NCCc2ccccc2)cc1 (centres undefined) | i
COC(=O)C1=COC(C)C2CN3CCC4(C(=O)Nc5ccccc54)C3CC12 (centres undefined) | i
COc1ccccc1NC(=O)N1Cc2ccccc2-n2cccc2C1c1ccccc1 (centres undefined) | i
COC(=O)c1cccc(NC(=O)N2Cc3ccccc3-n3cccc3C2c2ccc(SC)cc2)c1 (centres undefined) | i
CCOCCCNC(=O)N1Cc2ccccc2-n2cccc2C1c1cccc(C)c1 (centres undefined) | i
Cc1cc(C)cc(NC(=O)N2Cc3ccccc3-n3cccc3C2c2cccc(Cl)c2)c1 (centres undefined) | i
CCC1c2cccn2-c2ccccc2CN1C(=O)Nc1ccccc1 (centres undefined) | i
Cc1c(Cl)cccc1NC(=O)N1Cc2ccccc2-n2cccc2C1c1cccs1 (centres undefined) | i
CN1c2cccnc2CNCC[C@H]1CO | i
O=C(Nc1ccc(F)cc1F)N1Cc2ccccc2-n2cccc2C1c1ccccc1 (centres undefined) | i
CC(=O)OC[C@]12[C@H](OC(C)=O)C(=O)[C@@H]3[C@@H](O)[C@@]14O[C@@]3(C)COC(=O)c1cccnc1[C@@H](C)[C@H](C)C(=O)O[C@@H]([C@H](OC(C)=O)[C@@H]2OC(C)=O)[C@]4(C)O | i
COc1cccc(NC(=O)N2Cc3ccccc3-n3cccc3C2c2ccccc2)c1 (centres undefined) | i
CCc1ccc(C2c3cccn3-c3ccccc3CN2C(=O)Nc2cc(C)cc(C)c2)cc1 (centres undefined) | i
NCCc1c[nH]c2ccccc12 | +
O=C(Nc1ccc(Cl)cc1)N1Cc2ccccc2-n2cccc2C1c1cccs1 (centres undefined) | i
COC1CC(OC2CCC3(C=O)C(CCC4C3CCC3(C)C(C5=CC(=O)OC5)CCC43O)C2)OC(C)C1OC1OC(CO)C(O)C(O)C1O (centres undefined) | i
NNC(=O)c1ccc(O)cc1 | i
Cc1cccc(NC(=O)N2Cc3ccccc3-n3cccc3C2C(C)C)c1C (centres undefined) | i
CCOc1ccc(C2c3cccn3-c3ccccc3CN2C(=O)Nc2ccccc2C(F)(F)F)cc1 (centres undefined) | i
CCOc1ccc(C2c3cccn3-c3ccccc3CN2C(=O)Nc2cc(OC)ccc2OC)cc1 (centres undefined) | i
CN1C(=O)N(c2ccc(C#N)c(C(F)(F)F)c2)C(=O)[C@]1(CO)c1ccccc1 | i
CCC(=O)CCCCC[C@@H]1NC(=O)[C@H]2CCCCN2C(=O)[C@H]([C@@H](C)CC)NC(=O)[C@H](Cc2cn(OC)c3ccccc23)NC1=O | ?
CCOc1ccc(C2c3cccn3-c3ccccc3CN2C(=O)Nc2ccc(OC)cc2OC)cc1 (centres undefined) | i
CCOC(=O)c1ccccc1NC(=O)N1Cc2ccccc2-n2cccc2C1c1ccccc1Cl (centres undefined) | i
COCCCNC(=O)N1Cc2ccccc2-n2cccc2C1c1ccccc1Cl (centres undefined) | i
C[C@H]1C(=O)O[C@H]2[C@H](O)[C@]34C5OC(=O)[C@]3(O[C@@H]3OC(=O)[C@H](O)C34[C@H](C(C)(C)C)[C@H]5O)C12O (some centres undefined) | i
CCCCCCC1C(=O)O[C@H](C)[C@H](NC(=O)c2cccc(NC=O)c2O)C(=O)O[C@@H](C)[C@@H]1OC(=O)CC(C)C (some centres undefined) | ?
CCOc1ccc(C2c3cccn3-c3ccccc3CN2C(=O)Nc2ccccc2Cl)cc1 (centres undefined) | i
COc1ccc(NC(=O)N2Cc3ccccc3-n3cccc3C2c2ccc(OC)c(OC)c2)cc1 (centres undefined) | i
CN1C2CCC1CC(OC(=O)c1cc(Cl)cc(Cl)c1)C2 (centres undefined) | i
CCC(C)/C=C(C)/C=C/C1=CC2=C(Cl)C(=O)C(C)(OC(C)=O)C(=O)C2=CO1 (centres undefined) | ?
CNc1ccc2oc(C[C@H]3O[C@@]4(CC[C@H]3C)O[C@H]([C@H](C)C(=O)c3ccc[nH]3)[C@H](C)C[C@H]4C)nc2c1C(=O)O | +
COc1ccc(C2c3cccn3-c3ccccc3CN2C(=O)Nc2ccc(C)cc2C)cc1OC (centres undefined) | i
COc1ccc(C2c3cccn3-c3ccccc3CN2C(=O)Nc2ccc(F)cc2)cc1 (centres undefined) | i
COc1cc(NC(=O)N2Cc3ccccc3-n3cccc3C2c2ccc(F)cc2)cc(OC)c1 (centres undefined) | i
COc1ccc(C2c3cccn3-c3ccccc3CN2C(=O)NCc2ccc(F)cc2)cc1OC (centres undefined) | i

Continued, overlapping the part above by 7 compounds.
SMILES | Methyltransferases
CN1C2CCC1CC(OC(=O)c1cc(Cl)cc(Cl)c1)C2 (centres undefined) | i
CCC(C)/C=C(C)/C=C/C1=CC2=C(Cl)C(=O)C(C)(OC(C)=O)C(=O)C2=CO1 (centres undefined) | ?
CNc1ccc2oc(C[C@H]3O[C@@]4(CC[C@H]3C)O[C@H]([C@H](C)C(=O)c3ccc[nH]3)[C@H](C)C[C@H]4C)nc2c1C(=O)O | +
COc1ccc(C2c3cccn3-c3ccccc3CN2C(=O)Nc2ccc(C)cc2C)cc1OC (centres undefined) | i
COc1ccc(C2c3cccn3-c3ccccc3CN2C(=O)Nc2ccc(F)cc2)cc1 (centres undefined) | i
COc1cc(NC(=O)N2Cc3ccccc3-n3cccc3C2c2ccc(F)cc2)cc(OC)c1 (centres undefined) | i
COc1ccc(C2c3cccn3-c3ccccc3CN2C(=O)NCc2ccc(F)cc2)cc1OC (centres undefined) | i
COc1ccc(C2c3cccn3-c3ccccc3CN2C(=O)Nc2cc(F)ccc2F)cc1OC (centres undefined) | i
COc1ccccc1-n1cc(C2=CCN(CCOCCO)CC2)cn1 | ?
COc1ccc(C2c3cccn3-c3ccccc3CN2C(=O)Nc2cc(C)ccc2C)cc1 (centres undefined) | i
Cc1sc2c(c1C)C(c1ccc(Cl)cc1)=N[C@@H](CC(=O)OC(C)(C)C)c1nnc(C)n1-2 | ?
NC1CCc2cc(O)c(O)cc2C1 (centres undefined) | ?
CCOc1ccc(C2c3cccn3-c3ccccc3CN2C(=O)Nc2cc(C)cc(C)c2)cc1 (centres undefined) | i
O=C(C1CCCCC1)N1C[C@@H]2C[C@H](C1)c1c(-c3cncnc3)ccc(=O)n1C2 | i
CCOCCCNC(=O)N1Cc2ccccc2-n2cccc2C1c1cccc(Cl)c1 (centres undefined) | i
CN1CCN(C(=O)Cc2c[nH]c3ncc(-c4ccnn4C)cc23)CC1 | i
CCOc1ccccc1NC(=O)N1Cc2ccccc2-n2cccc2C1c1cccc(C)c1 (centres undefined) | i
O=C(O)c1ccnc2cc(C(OCCN3CCC(F)(F)CC3)c3ccccc3Cl)[nH]c12 (centres undefined) | ?
CCOc1ccc(C2c3cccn3-c3ccccc3CN2C(=O)Nc2ccc(CC)cc2)cc1 (centres undefined) | i
CCOC(=O)C1(CCc2ccccc2)CCN(Cc2ccc(NC(C)=O)cc2)CC1 | i
O=C(Nc1ccc2c(c1)OCCO2)N1Cc2ccccc2-n2cccc2C1c1ccccc1 (centres undefined) | i
C[C@H]1O[C@@H](O[C@H]2CC[C@]3(C=O)C4CC[C@]5(C)[C@@H](C6=CC(=O)OC6)CC[C@]5(O)[C@@H]4CC[C@]3(O)C2)C[C@@H](O)[C@@H]1O (some centres undefined) | i

A second format for two compounds above.
compound	Methyltransferases
COc1cc(NC(=O)N2Cc3ccccc3-n3cccc3C2c2ccc(F)cc2)cc(OC)c1 (centres undefined)	i
COc1ccc(C2c3cccn3-c3ccccc3CN2C(=O)NCc2ccc(F)cc2)cc1OC (centres undefined)	i

Nothing new here: three of the compounds above.
SMILES | Methyltransferases
COc1ccc(C2c3cccn3-c3ccccc3CN2C(=O)Nc2cc(F)ccc2F)cc1OC (centres undefined) | i
COc1ccccc1-n1cc(C2=CCN(CCOCCO)CC2)cn1 | ?
COc1ccc(C2c3cccn3-c3ccccc3CN2C(=O)Nc2cc(C)ccc2C)cc1 (centres undefined) | i

Shown with each value named: entries from further up.
Molecule: O=C(Nc1ccc2c(c1)OCCO2)N1Cc2ccccc2-n2cccc2C1c1ccccc1 (centres undefined)
- Methyltransferases = i
Molecule: C[C@H]1O[C@@H](O[C@H]2CC[C@]3(C=O)C4CC[C@]5(C)[C@@H](C6=CC(=O)OC6)CC[C@]5(O)[C@@H]4CC[C@]3(O)C2)C[C@@H](O)[C@@H]1O (some centres undefined)
- Methyltransferases = i

Later entries.
SMILES | Methyltransferases
C/C=C(\C)C(=O)O[C@@H]1[C@@H](C)[C@]2(O)C3C=C(C)C(=O)[C@@]3(O)CC(CO)=C[C@H]2C2C(C)(C)[C@@]21OC(=O)C(C)CC (some centres undefined) | i
Cn1nc(-c2cccs2)cc1[C@H]1CN2CC[C@H]1C[C@@H]2CNC(=O)Nc1ccccc1 | i
O=C(Nc1ccc(Cl)cc1)N1Cc2ccccc2-n2cccc2C1c1ccc(F)cc1 (centres undefined) | i
Cc1ccccc1NC(=O)N1Cc2ccccc2-n2cccc2C1c1cccs1 (centres undefined) | i
CCOc1ccc(C2c3cccn3-c3ccccc3CN2C(=O)NCc2ccccc2)cc1 (centres undefined) | i
CO[C@H]1[C@H](O)[C@H](O[C@H]2CC[C@]3(C)C4CC[C@]5(C)[C@H](C6=CC(=O)OC6)CC[C@]5(O)C4CC[C@@H]3C2)O[C@@H](C)[C@@H]1O (some centres undefined) | i
O=S(=O)(NC[C@H]1C[C@@H]2CCN1C[C@@H]2CN1CCOCC1)c1ccccc1 | i
CSc1ccc(C2c3cccn3-c3ccccc3CN2C(=O)Nc2cc(C)ccc2C)cc1 (centres undefined) | i
Cc1ccc(C)c(NC(=O)N2Cc3ccccc3-n3cccc3C2c2cccc(Cl)c2)c1 (centres undefined) | i
CCC1c2cccn2-c2ccccc2CN1C(=O)Nc1cccc(Cl)c1C (centres undefined) | i
COc1cc2c(cc1Oc1ccccc1)NC(=O)C21CCN(CC2CC2)CC1 | ?
C[C@H]1CN(Cc2ccc(CC(=O)N3CCC(Nc4cccc(F)c4)CC3)cc2)CCN1 | i
COc1cc(N2CCN(C)CC2)ccc1N | +
COc1ccc(C2c3cccn3-c3ccccc3CN2C(=O)Nc2cccc(Cl)c2C)cc1OC (centres undefined) | i
COc1ccccc1NC(=O)N1Cc2ccccc2-n2cccc2C1c1ccccc1Cl (centres undefined) | i
C[C@]12CC[C@H]3[C@@H](CCC4=C/C(=N/OCC(=O)O)CC[C@@]43C)[C@@H]1CC[C@@H]2O | i
CCc1ccc(C2c3cccn3-c3ccccc3CN2C(=O)Nc2cccc(C)c2C)cc1 (centres undefined) | i
O=C(Nc1ccc(Cl)cc1)N1Cc2ccccc2-n2cccc2C1c1ccccc1 (centres undefined) | i
Cc1ccccc1C1c2cccn2-c2ccccc2CN1C(=O)Nc1cccc(Br)c1 (centres undefined) | i
C[C@@H](CN1CCC(n2c(=O)[nH]c3cc(Br)ccc32)CC1)NC(=O)[C@@H]1C[C@H]1c1ccccc1 | i
COC[C@H]1C[C@@H](NC2CCOCC2)[C@H](O)[C@@H]1O | i
CCN1CC2(COC)C3[C@@H](OC)C4C1C3(C1C[C@]3(O)[C@H](OC(=O)c5ccccc5)C1[C@]4(OC(C)=O)[C@@H](O)[C@@H]3OC)[C@H](OC)C[C@H]2O (some centres undefined) | i
CCOc1ccccc1NC(=O)N1Cc2ccccc2-n2cccc2C1c1cccs1 (centres undefined) | i
COc1ccc(C)cc1NC(=O)N1Cc2ccccc2-n2cccc2C1c1ccc(C)cc1 (centres undefined) | i
Cc1ccc(C2c3cccn3-c3ccccc3CN2C(=O)Nc2cccc(Br)c2)cc1 (centres undefined) | i
O=C(Nc1ccc(F)cc1F)N1Cc2ccccc2-n2cccc2C1c1ccc(F)cc1 (centres undefined) | i
Cc1cccc(C2c3cccn3-c3ccccc3CN2C(=O)Nc2cccc(C)c2C)c1 (centres undefined) | i
CC(C)c1ccc(C2c3cccn3-c3ccccc3CN2C(=O)Nc2ccc(F)cc2)cc1 (centres undefined) | i
COc1cccc(CNC(=O)N2Cc3ccccc3-n3cccc3C2c2cc(F)cc(F)c2)c1 (centres undefined) | i
COC(=O)C12C(=O)C(C)(O)C(=O)C1(C)C(C)=CC1C34CCC(OC3=O)C(C)(C)C4CCC12C (centres undefined) | i
CC(=O)N(C)c1cccc(-c2ccnc3c(C(=O)c4cccs4)cnn23)c1 | i
COc1cccc(NC(=O)N2Cc3ccccc3-n3cccc3C2c2ccc(C)cc2)c1 (centres undefined) | i

Only part of the results is shown; rates above refer to the full screens.
